Cruzain inh noDet: inhibitors of Trypanosoma cruzi cruzain without detergent | 200,000 compounds, 2.3% hits | AID 1476 | Potency, µM, for the others: max response, negative = inhibition, hits mostly inhibitors | purified cruzain, Z-FR-AMC fluorescence, no detergent | P25779;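 further: plate controls were enzyme without inhibitor for no effect and buffer without enzyme for full effect; nearly all actives have a fitted effect of over 40% in size; top concentration of the series not given in the record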
Target sequence (P25779 123-467 limits assumed): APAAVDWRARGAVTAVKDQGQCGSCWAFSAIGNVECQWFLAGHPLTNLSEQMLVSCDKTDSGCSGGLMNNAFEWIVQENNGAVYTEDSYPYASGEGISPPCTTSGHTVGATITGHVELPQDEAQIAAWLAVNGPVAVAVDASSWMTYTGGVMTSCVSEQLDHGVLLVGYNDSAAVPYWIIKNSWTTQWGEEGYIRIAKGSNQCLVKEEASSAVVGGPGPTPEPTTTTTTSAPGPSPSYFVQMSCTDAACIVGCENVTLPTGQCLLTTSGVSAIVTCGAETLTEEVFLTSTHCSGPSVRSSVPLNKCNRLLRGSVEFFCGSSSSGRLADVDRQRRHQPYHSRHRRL
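Purified cruzain at 1.5 nM, pre-incubated 15 min with compound at room temperature in 100 mM sodium acetate pH 5.5, 5 mM DTT, 0.00005% Triton X-100. Reaction started with 2 uM Z-FR-AMC; AMC fluorescence increase over 60 s gives rate.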
Cruzain inh Det: inhibitors of Trypanosoma cruzi cruzain with detergent. P25779. purified cruzain, Z-FR-AMC fluorescence, 0.01% Triton. Potency, µM, for the others: max response, negative = inhibition, hits mostly inhibitors. 200,000 compounds, 0.43% hits;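 further: plate controls were neutral wells for no effect and buffer without enzyme for full effect; nearly all actives have a fitted effect of over 40% in size; top concentration of the series not given in the record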
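Detergent-containing run (0.01% Triton X-100) in acetate buffer pH 5.5 with 5 mM DTT: enzyme at 1.5 nM final, 15 min compound preincubation at room temperature, then 2 uM Z-FR-AMC substrate. Activity taken as 60 s fluorescence increase at 360/450 nm.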
SARS PLP yeast: SARS-CoV PLP inhibition in yeast; Potency, µM (doses to about 32.9 µM), for the others: at the top dose activity, positive = growth rescue; AID 485353; S. cerevisiae expressing SARS-CoV PLpro, growth rescue; control for the full effect not named in the record; 330,000 compounds, 0.19% hits; active means well fitted rising curve with a large enough effect; inconclusive means small, poorly fitted or top-dose-only effect; inactive means no such curve, though single readings can be large or run the other way; further: 0% is about no effect; nearly all actives have a fitted effect of over 55% in size; growth read by luminescence after 48 h
Marburg entry inh: Marburg virus entry inhibition; Marburg virus pseudotyped entry inhibition, cell reporter; control for the full effect not named in the record; about a third of the inactives were read at about 46 µM; Potency, µM (top dose mostly 37.8 µM), for the others: at the highest dose activity change, negative = inhibition, hits mostly inhibitors; 300,000 compounds, 1.8% hits; active = well fitted inhibition curve with a large enough effect; inconclusive = small, poorly fitted or top-dose-only effect, or effect the other way; inactive = flat fitted curve, though single readings scatter; tested in HEK293 cells; about a fifth of its hits are not listed in these tables; further: on the % scale 0 is the no-effect control and ±100 the full control effect; luciferase read-out
NS1 inh: influenza NS1 inhibition | S. cerevisiae slowed by influenza A NS1, growth recovery by OD600 | Potency, µM (doses to about 46.1 µM), for inactives: top-dose activity, positive = more growth | 270,000 compounds, 0.4% hits | AID 2326; active means well fitted rising curve with a large enough effect; inconclusive means small, poorly fitted or top-dose-only effect; inactive means no such curve, though single readings can be large or run the other way; further: nearly all actives have a fitted effect of over 50% in size
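Compounds were scored for reversing the slow growth caused by influenza A NS1 in S. cerevisiae, measured by optical density at 600 nm. Assay medium contained 2% galactose at pH 6.0; NS1-free yeast of the same strain were the positive control.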
2A StopGo: lowers the luciferase signal of an FMDV 2A StopGo reporter. human cells with a luciferase reporter of 2A StopGo recoding; control for the full effect not named in the record. Potency, µM (highest dose often 57.9 µM), for inactives: at the top dose signal change, negative = less light. 410,000 compounds, 1.2% hits. AID 1159524; active = well fitted falling curve with a large enough effect; inconclusive = small, poorly fitted or top-dose-only effect; inactive = no such curve, though single readings can be large or run the other way; tested in HEK293T cells; further: on the % scale 0 is the no-effect control and ±100 the full control effect; nearly all actives have a fitted effect of over 45% in size; luciferase light after 4 h
RE007 growth inh: less growth of the S. pombe RE007 Vpr strain. S. pombe RE007 Vpr strain, BacTiter-Glo ATP luminescence, 24 h; control for the full effect not named in the record. Potency, µM (doses to about 92.2 µM), inactives show at the highest dose activity change, negative = less growth. 360,000 compounds, 0.21% hits; active = well fitted falling curve with a large enough effect; inconclusive = small, poorly fitted or top-dose-only effect; inactive = no such curve, though single readings can be large or run the other way;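 further: on the % scale 0 is the no-effect control and ±100 the full control effect; nearly all actives have a fitted effect of over 50% in size; the assay follows cell death caused by Vpr and the record does not say whether a fall means rescue or toxicity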
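Fission yeast strain RE007, carrying one chromosomally integrated HIV-1 vpr copy, was seeded at OD 0.01 in PMG+AL medium with 23 nL pinned compound. After 24 h at 30 °C and 99% humidity, viability was read by BacTiter-Glo luminescence.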
LASV entry inh: Lassa virus entry inhibition. Lassa virus pseudotype entry inhibition, cell reporter; control for the full effect not named in the record. Potency, µM (highest dose often 37.9 µM), for the others: at the highest dose activity change, negative = inhibition, actives largely listed as inhibitors. 300,000 compounds, 1.2% hits; active means well fitted inhibition curve with a large enough effect; inconclusive means small, poorly fitted or top-dose-only effect, or effect the other way; inactive means flat fitted curve, though single readings scatter; tested in HEK293 cells; further: on the % scale 0 is the no-effect control and ±100 the full control effect; nearly all actives have a fitted effect of over 50% in size; luciferase read-out
* = called active by the depositor; ? = inconclusive; / = no result given; [ ] = remark or other dose. Unless noted, the call rests on the fitted dose curve; in most records, active means well fitted curve in the direction sought with a large enough effect; inconclusive means small, poorly fitted or top-dose-only effect, or another doubt; inactive means no such curve, though single readings can be large; an effect the other way counts as inactive or inconclusive. Potency means the concentration at half of the fitted maximal effect.

The first eleven entries (preview)
SMILES	Cruzain inh noDet	Cruzain inh Det	SARS PLP yeast	Marburg entry inh	NS1 inh	2A StopGo	RE007 growth inh	LASV entry inh
O=C(c1ccc(-n2cnnn2)cc1)N1CCN(C(c2ccccc2)c2ccccc2)CC1	?	4.6%	-4%	?	-57%	?	10%	-5%
CC(=O)Nc1nc(SCC(=O)NCC2CCCO2)[nH]c(=O)c1NC(=O)c1cccs1 (centres undefined)	/	/	2%	/	/	3%	-2%	?
COc1ccccc1N(CC(=O)NC1CCCCC1)C(=O)CCC(=O)Nc1ccccn1	7%	1.4%	0%	-1%	-13%	1%	16%	4%
CCCCCCCn1c2c(c(=N)c3c1CCC3)CCCC2	/	/	13%	?	-38%	3.2µM*	?	?
Cc1cccc(C(=O)NNC(=O)c2ccc(Br)cc2)c1	/	/	0%	12%[46.1 µM]	-4%	28%	19%	-2%
COc1ccc(C(=O)C2CC2)cc1	/	/	/	10%	/	3%	10%	5%[46.1 µM]
O=C(Cn1cncn1)NCCCc1ccccc1	/	/	0%	8%[46.1 µM]	/	-13%	28%	?
CCCN(C(=O)Cc1c(C(=O)O)[nH]c2ccc(Cl)cc12)c1ccc(OCC)cc1	-16%	0.9%	/	-2%[46.1 µM]	/	-21%	/	-19%[46.1 µM]
COc1cc(/C=N/NC(=O)COc2cccc(F)c2)ccc1OS(=O)(=O)c1ccc(C)cc1	-24%	-3.3%	11%	?	?	0%	8%	?
CCc1nn(CCCC(=O)NCc2ccccc2C)c(=O)c2cc3occc3n12	/	/	7%	8%[46.1 µM]	-11%	-3%	14%	2%[46.1 µM]
COc1cc(C(=S)N2CCCC2)ccc1OCC(N)=O	/	/	-7%	8%	17%	-10%	4%	-19%

Main list, from the first entry:
SMILES	Cruzain inh noDet	Cruzain inh Det	SARS PLP yeast	Marburg entry inh	NS1 inh	2A StopGo	RE007 growth inh	LASV entry inh
O=C(c1ccc(-n2cnnn2)cc1)N1CCN(C(c2ccccc2)c2ccccc2)CC1	?	4.6%	-4%	?	-57%	?	10%	-5%
CC(=O)Nc1nc(SCC(=O)NCC2CCCO2)[nH]c(=O)c1NC(=O)c1cccs1 (centres undefined)	/	/	2%	/	/	3%	-2%	?
COc1ccccc1N(CC(=O)NC1CCCCC1)C(=O)CCC(=O)Nc1ccccn1	7%	1.4%	0%	-1%	-13%	1%	16%	4%
CCCCCCCn1c2c(c(=N)c3c1CCC3)CCCC2	/	/	13%	?	-38%	3.2µM*	?	?
Cc1cccc(C(=O)NNC(=O)c2ccc(Br)cc2)c1	/	/	0%	12%[46.1 µM]	-4%	28%	19%	-2%
COc1ccc(C(=O)C2CC2)cc1	/	/	/	10%	/	3%	10%	5%[46.1 µM]
O=C(Cn1cncn1)NCCCc1ccccc1	/	/	0%	8%[46.1 µM]	/	-13%	28%	?
CCCN(C(=O)Cc1c(C(=O)O)[nH]c2ccc(Cl)cc12)c1ccc(OCC)cc1	-16%	0.9%	/	-2%[46.1 µM]	/	-21%	/	-19%[46.1 µM]
COc1cc(/C=N/NC(=O)COc2cccc(F)c2)ccc1OS(=O)(=O)c1ccc(C)cc1	-24%	-3.3%	11%	?	?	0%	8%	?
CCc1nn(CCCC(=O)NCc2ccccc2C)c(=O)c2cc3occc3n12	/	/	7%	8%[46.1 µM]	-11%	-3%	14%	2%[46.1 µM]
COc1cc(C(=S)N2CCCC2)ccc1OCC(N)=O	/	/	-7%	8%	17%	-10%	4%	-19%
CCN(CC(=O)Nc1c(F)cccc1F)C(=O)C1CCC1	/	/	3%	6%[46.1 µM]	/	-9%	-3%	17%
CC(=O)c1ccc(N/C=C\C(=O)c2ccc(C)cc2)cc1	/	/	0%	?	-1%	40%[activator]	-14%	?
Cc1cc(N2CCCC2)nc(-c2ccccc2O)n1	-7%	-3.4%	1%	0%	0.71µM*	13%	-14%	6%
O=C(COC(=O)c1cccc(Cl)c1Cl)NCCN1C(=O)CSC1=O	-5%	-8.9%	-4%	18%	0%	2%	/	3%
Cc1ccc(-c2nnc(C3CCN(S(=O)(=O)c4ccc(C)c(C)c4)CC3)o2)cc1	5%	2.4%	/	-1%[46.1 µM]	/	-5%	/	9%[46.1 µM]
C/C(Cn1nc([N+](=O)[O-])cc1C)=N\NC(=O)c1ccc(O)cc1O	-1%	15%	-7%	14%	12%	6%	0%	2%
O=C(Cc1ccccc1)N1CCC(c2ccccc2)C1 (centres undefined)	/	/	-1%	-7%	-1%	48%[activator]	3%	20%
O=C(O)C1CC(O)CN1S(=O)(=O)c1ccc2ccccc2c1 (centres undefined)	/	/	-15%	-1%	/	8%	0%	?
COc1cccc(CN2CCN(S(=O)(=O)c3ccc(Cl)s3)CC2)c1	/	/	-5%	?	-27%	-12%	-6%	3%
O=C(Nc1ccccc1N1CCCC1)c1cccc(S(=O)(=O)N2CCOCC2)c1	/	/	6%	1%[46.1 µM]	/	-13%	-14%	-14%
CC1CCN(S(=O)(=O)c2ccc3c(c2)CCN3C(=O)Nc2cccc(Br)c2)CC1	-2%	0.0%	/	5%[46.1 µM]	/	0%	/	/
CCCn1nc(C(=O)Nc2cc(C(=O)OC)ccc2C)c2ccccc2c1=O	-23%	0.6%	9%	-25%	3%	13%	1%	-16%
Cc1noc(N)c1C(=O)Nc1ccc(F)cc1	-1%	2.5%	5%	1%	-7%	-15%	7%	?
COc1cc(CNc2ccc(N3CCCC3)cc2)cc(Cl)c1OC	/	/	-1%	?	13%	-29%	-14%	?
O=C(c1ccc(Cl)s1)N1CCN(c2nc3ccccc3s2)CC1	-19%	-18%	-16%	4%	-76%	?	10%	/
Cc1sc(NC(=O)Cc2ccc3c(c2)OCO3)nc1-c1ccc2c(c1)CCN2C(=O)c1ccccc1F	7.9µM*	-1.3%	7%	-14%	22%	?	0%	?
COc1ccccc1CCN=C(N)NS(=O)(=O)c1ccc(F)cc1	/	/	-1%	-24%	6%	-21%	-16%	?
CC(C)[C@H](NS(=O)(=O)c1ccccc1)C(=O)Nc1ccccc1N1CCOCC1	/	/	1%	?	/	-5%	?	7%
O=C(O)c1cc2ccccc2n1-c1ccccc1	-12%	0.2%	-11%	-3%[46.1 µM]	-50%	19%	-1%	-12%
Cc1ccccc1N(CC(=O)NCc1ccncc1)S(C)(=O)=O	3%	4.9%	2%	?	8%	/	-11%	4%
CCN(CC)c1nn2c(=O)c(C(=O)NCc3ccc(N(C)C)cc3)cnc2s1	13%	-3.3%	/	/	/	-20%	/	?
FC(F)(F)c1cc(-c2ccccc2)nc(-n2cncn2)n1	-4%	0.7%	7%	1%	1%	-12%	5%	?
CCOc1ccc(/C=C/[N+](=O)[O-])c2ccccc12	-10%	-4.4%	-40%	?	-213%	?	?	?
COCCNCC(=O)Nc1ccc(C)c(S(=O)(=O)N2CCCCC2)c1	/	/	3%	0%[14.2 µM]	/	2%	-1%	2%
O=C1CC(c2nnc(Cc3ccc(Cl)cc3)o2)CN1c1ccccc1 (centres undefined)	22%	-0.2%	/	16%[46.1 µM]	/	1%	/	13%[46.1 µM]
O=C(COC(=O)CCC(=O)c1ccc2c(c1)OCCO2)NCc1ccc2c(c1)OCO2	-2%	1.3%	10%	-29%	-12%	-28%	40%	-17%
Cc1cc(NC(=O)CC2CCCC2)ccc1Br	/	/	-8%	?	-43%	27%	?	?
COc1cc2c(cc1OC)C(C)N(C(=O)C(NC(=O)c1ccccc1)C(C)C)CC2 (centres undefined)	/	/	-1%	0%[46.1 µM]	0%	-10%	11%	-30%
CCN(CC)CCOCCOc1ccccc1F	-15%	-0.6%	-5%	7%	-2%	/	-1%	-1%
Nc1nnnn1NCc1cccc(OCc2ccccc2)c1	-14%	-5.4%	2%	-6%[46.1 µM]	-9%	-9%	-7%	0%
COCC1CCN(Cc2c(C(=O)N3CCc4ccccc4C3)nc3ccc(Cl)cn23)C1 (centres undefined)	/	/	-7%	/	25%	-14%	-1%	/
C=CCn1c(SCC(=O)NCc2ccco2)nc2ccccc2c1=O	/	/	-3%	-23%[46.1 µM]	1%	-9%	23%	0%
CCOC(=O)C(=N/O)/C(C)=N/NC(C)=O	/	/	-5%	26%[46.1 µM]	/	-20%	-8%	2%
COc1ccc(-c2cc(C(=O)Nc3c(F)cc(F)cc3Br)no2)cc1	/	/	-1%	/	0%	-3%	8%	/

Part of the list above in order of length of the SMILES, low to high:
SMILES	Cruzain inh noDet	Cruzain inh Det	SARS PLP yeast	Marburg entry inh	NS1 inh	2A StopGo	RE007 growth inh	LASV entry inh
COc1ccc(C(=O)C2CC2)cc1	/	/	/	10%	/	3%	10%	5%[46.1 µM]
COc1ccccc1CCN=C(N)NS(=O)(=O)c1ccc(F)cc1	/	/	-1%	-24%	6%	-21%	-16%	?
CCCn1nc(C(=O)Nc2cc(C(=O)OC)ccc2C)c2ccccc2c1=O	-23%	0.6%	9%	-25%	3%	13%	1%	-16%

(further entries)
SMILES	Cruzain inh noDet	Cruzain inh Det	SARS PLP yeast	Marburg entry inh	NS1 inh	2A StopGo	RE007 growth inh	LASV entry inh
COc1ccc(CCNC(=O)CCc2c(C)nc3cc(-c4ccccc4)nn3c2C)cc1OC	?	0.7%	/	?	/	?	/	?
COc1ccc(N(C(=O)c2snc(C(N)=O)c2N)C(C(=O)NC2CCCC2)c2ccco2)c(OC)c1 (centres undefined)	/	/	16%	-29%[46.1 µM]	18%	-22%	-11%	/
O=C(/C(=N/O)n1cncn1)c1ccccc1Cl	/	/	-1%	?	1%	4%	4%	0%
Cc1ccc(CNc2cc(C)nc3nc(-c4ccc(C)cc4)nn23)cc1	-15%	-1.9%	/	/	/	52%[activator]	/	?
COc1cc(-n2c(=O)c3ccccc3n(CC(=O)OCc3ccccc3)c2=O)cc(OC)c1OC	/	/	-1%	4%[46.1 µM]	/	-4%	0%	24%
Cc1ccc2sc(N(CCN(C)C)C(=O)c3ccc4ccccc4c3)nc2c1C	/	/	-2%	/	-6%	-1%	5%	/

Bioassay records from PubChem.
